Mtb hypoxia inh: inhibitors of hypoxia-regulated fluorescent reporter in Mycobacterium tuberculosis. M. tuberculosis hypoxia-regulated fluorescent reporter, fluorescence. 0.1% of 300,000 active. fluorescence inhibition, % (test concentration not listed);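 active means 35 to 45% if threefold the growth effect, above 45% if 1.5-fold the growth effect; inactive means the rest, general growth blockers included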;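 further: wells of about 50 µL received 100 nL stock; 0% = vehicle wells and 100% = reference inhibitor wells; whole bacteria with a GFP reporter of the hypoxia response; strong numbers were not always called active; many hits fall short of the cut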
BJeLR viability: kills HRASV12-expressing BJeLR cells; BJeLR (HRASV12) viability, CellTiter-Glo ATP luminescence, 48 h; reference of the scale not given here; inhibition, % (concentration not given with the values); 0.17% of 300,000 active; AID 1554;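 active means replicate mean above 50%; inconclusive means above 50% but judged a plate artefact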;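 further: 50 nL library stock added to about 25 µL; numbers are from one replicate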
Autofluor counter: flagged as autofluorescent in microsphere protease counterscreen | compound autofluorescence counterscreen, microsphere flow cytometry; stronger effect = higher value | 3.1% of 360,000 active | fluorescence intensity (test concentration not listed);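 active means at least 3 SD above the mean of all compounds, about 16000 in these data; inconclusive means too few beads counted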;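 further: 100 nL of 1 mM stock went into each well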
PrP UTR inh: suppresses PrP 5' UTR mRNA reporter expression; cell-based PrP 5' UTR mRNA reporter, plate reader; inhibition, % (no concentration beside the values); 0.35% of 340,000 active; AID 488862;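 active means every replicate at 50% or more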;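 further: 0 = median of the neutral control wells; tested in H4 reporter cells; numbers are from one replicate; inactives centre near -14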
RN4220 kill: S. aureus RN4220 growth inhibition. OD600, 16 h. inhibition, % (concentration not given with the values). 0.33% of 330,000 active. AID 1259311;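 active means z-score of -3 or lower and OD600 up to 0.18 on both plates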;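 further: plate controls were untreated cells for no effect and reference antibiotic for full effect; stock transfer was 100 nL into about 80 µL; one replicate is shown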
Sa ugtP lethal: growth inhibition of S. aureus ugtP deletion strain | S. aureus RN4220 ugtP deletion, OD600 growth, 16 h; some inactives read as strong as hits | growth inhibition, % (test concentration not listed) | 0.54% of 330,000 active;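 active means z-score under -3 and OD600 up to 0.15 on both plates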;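 further: plate controls were untreated wells for no effect and antibiotic for full effect; wells of about 80 µL received 100 nL stock; the first replicate is given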
Mtb hypoxia inh growth: recorded beside Mtb hypoxia inh, whose call it bears; growth inhibition, %; measured here: M. tuberculosis growth (absorbance);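 0% = vehicle and 100% = reference antibiotic; read after six days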
Starred values were filed as active, the others as inactive; ? = inconclusive; . = no result given; & = joins results of further samples.

no.	compound	Sa ugtP lethal	PrP UTR inh	Autofluor counter	Mtb hypoxia inh growth	Mtb hypoxia inh	BJeLR viability	RN4220 kill
1	CN(C)c1ccc(C(=S)N2CCNCC2)cc1	1	-17	2468	0	3	1	4.1
2	O=C(NN=Cc1c[nH]c2ccccc12)C1CC1c1ccccc1 (configuration not stated)	-14	.	.	-9	-9	.	-1.8
3	COc1ccccc1CNC(=O)c1cc(-c2ccncc2)nc2c(Cl)cccc12	10	-9	5575	8	4	1	-0.1
4	CN1C(=O)C(=Cc2ccccc2OS(=O)(=O)c2ccccc2)C(=O)N(C)C1=O	-8	12	4811	-9	-9	-3	11
5	N=C(SC1CC(=O)N(c2ccc(F)cc2)C1=O)N1N=C(c2ccccc2)CC1c1ccccc1 (configuration not stated)	23	-5	3261	-2	5	-9	0.2
6	COc1ccc(NC(=O)NS(=O)(=O)c2ccc(C)cc2)c(OC)c1	-2	-24	9691	1	4	0	11
7	Cc1ccc(N2CCN(S(=O)(=O)N3CCCCC3)CC2)cc1Cl	3	-24	2429	5	8	-18	4.6
8	COCCN1CCN(Cc2nc(C3(c4ccc(C)cc4)CCCC3)no2)CC1	5	-7	3847	4	15	0	10
9	NC(=NOS(=O)(=O)c1cccc([N+](=O)[O-])c1)c1ccncc1	6	.	.	4	11	.	7.6
10	Oc1c(C=C2N=c3ccccc3=N2)sc(=S)n1C1CCCCC1	8&10	3&-19	2417&2335	4&4	-3&15	-4&-1	5.1&-4.1
11	CC(C)(C)c1cc(NC(=O)c2cccs2)no1	2	-32	5831	9	7	6	2.1
12	O=C1CC(C(=O)O)S/C(=N\N=C\c2ccc(Br)cc2)N1 (configuration not stated)	.	4	4119	.	.	3	.
13	C=C(C)CSc1nc2sc3c(c2c(=O)n1-c1ccc(OC)cc1)CCN(C)C3	5	.	.	1	-11	1	1.5
14	CSCC[C@H](NC(=O)OC(C)(C)C)C(=O)N/N=C/c1c(C)[nH]c(=O)[nH]c1=O	.	-5	2980	.	.	0	.
15	Cc1ccccc1Nc1nc(N)nc(COC(=O)CCC(=O)c2ccc(F)cc2)n1	-1	-14	6393	8	-4	.	-1.1
16	COc1ccc(Cl)cc1NC(=O)CN(C1CCCCC1)S(C)(=O)=O	-7	-19	4280	1	4	-4	1.7
17	O=C(COC(=O)c1cccs1)NCc1ccccc1	-2	-17	3152	18	13	3	-11
18	Cc1ccc(NC(=O)CN(C)S(=O)(=O)c2cccs2)cc1C	1	-55	10553	11	4	-2	6.4
19	CCCc1cc(C(=O)N/N=C/c2cccn2C)cs1	.	-36	6604	.	.	-1	.
20	Cc1ccc(C(=O)CN(CCC(=O)O)C(=O)c2ccncc2)cc1	2	-28	4061	19	21	.	3.6
21	Cc1cccc(OCC(O)CN2CCc3ccccc3C2)c1 (configuration not stated)	1	-15	5250	1	5	-7	-0.1
22	Cc1cc(C(C)(C)C)oc1C(=O)O	-3	-24	4905	-6	2	2	4.3
23	O=P(Cc1ccccc1O)(c1ccccc1)c1ccccc1	0	-8	2537	6	13	10	3.2
24	Cc1ccc2c(c1)C(=O)CC1(CCC(C(C)(C)C)CC1)O2 (configuration not stated)	2	-20	2968	6	13	9	-4.7
25	COc1cc(NS(=O)(=O)c2ccc(NC(=S)NC(=O)/C=C/c3ccc(OC)c(OC)c3)cc2)ncn1	-25	8	3515	4	0	4	2.2
26	COc1ccccc1/C=C1\SC(=O)N(CCC(=O)N2CCCCC2CCO)C1=O (configuration not stated)	2	-17	6017	-4	14	13	1.4
27	N#Cc1nc(COc2ccccc2F)oc1NCCc1ccccc1	-1	-30	4228	.	.	4	-3.0
28	CC(=O)c1cccc(NC(=O)c2cnn3ccccc23)c1	10	-18	4764	1	4	7	15
29	Cc1nc(CN2CCN(C(=O)NC3(c4ccccc4)CC3)CC2)cs1	0	-22	4711	.	.	-10	-4.2
30	O=C(CNC(=O)c1ccco1)Nc1ccc(F)cc1	2	-19	3880	11	12	-1	4.7
31	COCCNC(=O)C(c1ccc(OC)cc1)N(C(=O)Cn1nnc2ccccc21)c1cccnc1 (configuration not stated)	9	-11	4366	2	5	0	4.6
32	Cc1ccc(/C=N/N2CCN(c3ccccn3)CC2)o1	.	-47	3579	.	.	-2	.
33	Cn1c(N=Cc2cccs2)nc2ccccc21	6	.	.	12	8	.	0.7
34	COc1ccc(NS(=O)(=O)c2cc(NC(=O)Cc3cccs3)ccc2C)cc1	25	-18	2218	-5	-3	10	-3.5
35	Cc1ccc(C)c(OCCC(=O)NNC(=O)Cn2nc(C)cc2C)c1	6	-8	?	2	1	-11	2.8
36	COc1ccccc1N1C(=O)CC(N2CCN(c3ccc([N+](=O)[O-])cc3)CC2)C1=O (configuration not stated)	9	-22	4095	-3	12	1	-0.6
37	O=C(N/N=C/c1cc([N+](=O)[O-])ccc1O)NC12CC3CC(CC(C3)C1)C2	.	-12	1896	.	.	-16	.
38	O=[N+]([O-])c1cccc(S(=O)(=O)NCC2CC3CCC2C3)c1 (configuration not stated)	-4	-13	3622	9	9	0	1.2
39	CC(=O)c1ccc(OC(=O)C2CSC3(C)CCC(=O)N23)cc1 (configuration not stated)	8	-7	3920	2	2	.	3.5
40	Fc1ccc(CN2CCCCCCC2)cc1F	6	-4	16629*	2	7	-5	6.9
41	COc1cccc(CN(C)C(=O)C2CCC(=O)N(Cc3cccc(F)c3)C2)c1 (configuration not stated)	2	-11	5134	-3	-2	2	-1.3
42	CCOc1cc(CNCc2ccc3c(c2)OCO3)ccc1OC	1	-9	4192	4	-2	9	4.1
43	N#Cc1c(N)nc2c(c1-c1ccc(Br)s1)CCCC2	4	-18	2171	9	6	2	5.1
44	COC(=O)CCCC1=CC2=C(c3ccccc3)C(=O)C(C)(OC(=O)C3CCCC3)C(=O)C2=CN1C1CC1 (configuration not stated)	-5	-61	3897	0	4	-9	5.7
45	Cc1ccc(NC(=O)CN2CCc3ccccc3C2)cc1C	-3	-19	3678	2	3	0	-2.2
46	COC(=O)C1=C(c2c(C)noc2C)CC2CCC1N2C(=O)NCC1CC1 (configuration not stated)	-5	.	.	11	-3	.	1.1
47	COc1cc(OC)c2c(=O)cc(-c3ccccc3)oc2c1	-20	-43	5674	.	.	8	12
48	COC(=O)c1ccccc1NC(=O)N1CCN(S(C)(=O)=O)CC1	2	1	4597	-4	0	8	2.4
49	COc1ccc(NC(=O)CN2CCCN(S(=O)(=O)c3ccc(F)cc3)CC2)c(OC)c1	-1	-6	4412	1	-4	-4	-0.2
50	CC(=O)Nc1ccc(S(=O)(=O)NCCCN2CCOCC2)cc1	8	-12	3945	5	5	2	-0.5
51	CCCN1CCC(NC(=O)C2CCCCC2C(=O)O)CC1 (configuration not stated)	6	-22	5786	6	11	1	1.4
52	Cc1ccc(S(=O)(=O)NCC(=O)NC2CCCCCC2)cc1	6	-8	4330	5	13	2	1.4
53	Cc1cc(Cl)ccc1C(=O)C1CCCN(C(=O)c2ccc3ncccc3c2)C1 (configuration not stated)	-3	-9	4477	-4	10	3	3.3
54	CC(C)(C)[C@@H]1COC(=O)[C@H](Cc2ccc(F)cc2)CC/C=C\C[C@@H](CC(=O)NCCO)C(=O)N1	7	-5	2934	-3	-3	.	3.5
55	COCC(C)NC(=O)C1CCN(S(=O)(=O)c2ccc3ccccc3c2)CC1 (configuration not stated)	4	-14	?	2	4	11	1.7
56	COc1ccc(CNC(=O)C2CCN(S(=O)(=O)c3ccc(Br)s3)CC2)cc1	13	-22	4381	10	6	-4	-1.7
57	O=C(O)c1ccc(/C=N/n2c(C3CCCCC3)n[nH]c2=S)cc1	.	-9	3602	.	.	2	.
58	CCN(C(=O)CSc1nnc(-c2ccccc2)n1C)C1CCS(=O)(=O)C1 (configuration not stated)	3	-18	3969	1	13	-19	2.9
59	CC(NC(=O)c1ccc(S(=O)(=O)Nc2ccccc2)cc1)c1ccc(S(N)(=O)=O)cc1 (configuration not stated)	2	-8	3580	-2	9	.	0.4
60	COc1ccc(S(=O)(=O)NC2CC3CCC2C3)cc1Br (configuration not stated)	-1	-18	4166	5	9	-6	2.7

(continued)
no.	compound	Sa ugtP lethal	PrP UTR inh	Autofluor counter	Mtb hypoxia inh growth	Mtb hypoxia inh	BJeLR viability	RN4220 kill
61	O=C(O)c1ccc(N=Cc2c(O)ccc3ccccc23)cc1	1	-23	3839	3	5	-8	8.0
62	CCn1cc(/C=C(/C#N)S(=O)(=O)c2ccccc2)cn1	1	-6	23211*	8	-3	4	4.1
63	CC1(c2ccccc2Cl)NC(=O)N(CC(=O)Nc2ccc(N3CCOCC3)cc2)C1=O (configuration not stated)	4	1	5127	5	7	.	3.8
64	COc1ccc(NC(=O)ON=Cc2ccc(N(C)C)cc2)cc1	-1	.	.	-10	7	.	-5.1
65	O=C(COC(=O)c1ccc(O)cc1)Nc1ccc2c(c1)OCCO2	4	-31	3082	1	-2	.	-1.4
66	COc1ccc(CN2C(=O)c3cccnc3C2=O)cc1S(=O)(=O)NCc1ccco1	6	-11	4870	1	7	8	2.7
67	CCC(C(=O)Nc1cc(C)cc(C)n1)c1ccccc1 (configuration not stated)	6	.	6159	-9	0	-11	1.5
68	Cc1cc(=O)oc2cc(OCC(=O)N3CCN(C(=O)C4COc5ccccc5O4)CC3)c(Cl)cc12 (configuration not stated)	-6	0	5690	-3	9	1	5.7
69	CC1CC(C(F)F)n2nc(C(=O)Nc3sc4c(c3C#N)CCC(C(C)(C)C)C4)nc2N1 (configuration not stated)	5	-42	4256	.	.	-2	4.5
70	O=C(C(=NNc1ccc(Br)cc1)Sc1nnnn1-c1ccccc1)c1ccccc1	-3	.	.	0	4	.	7.2
71	Cc1[nH]c2ccccc2c1/C=N/NC(=O)CNC(=O)Cc1ccccc1	.	-2	5809	.	.	2	.
72	COc1cc(Cl)c(C)cc1NC(=O)COC(=O)c1cc[n+]([O-])cc1	1	-25	4013	14	12	-2	-1.8
73	COc1ccc(OC)c(C(C)NC(=O)Nc2cccc(C(C)=O)c2)c1 (configuration not stated)	-1	-23	4289	4	5	.	6.8
74	CC1CCN(S(=O)(=O)c2cn(CC(=O)Nc3cccc(C#N)c3)cn2)CC1	-4	5	5770	7	-11	1	-1.0

A draw from above in order of formula weight, lowest first.
no.	compound	Sa ugtP lethal	PrP UTR inh	Autofluor counter	Mtb hypoxia inh growth	Mtb hypoxia inh	BJeLR viability	RN4220 kill
62	CCn1cc(/C=C(/C#N)S(=O)(=O)c2ccccc2)cn1	1	-6	23211*	8	-3	4	4.1
61	O=C(O)c1ccc(N=Cc2c(O)ccc3ccccc23)cc1	1	-23	3839	3	5	-8	8.0
64	COc1ccc(NC(=O)ON=Cc2ccc(N(C)C)cc2)cc1	-1	.	.	-10	7	.	-5.1
65	O=C(COC(=O)c1ccc(O)cc1)Nc1ccc2c(c1)OCCO2	4	-31	3082	1	-2	.	-1.4
73	COc1ccc(OC)c(C(C)NC(=O)Nc2cccc(C(C)=O)c2)c1 (configuration not stated)	-1	-23	4289	4	5	.	6.8
71	Cc1[nH]c2ccccc2c1/C=N/NC(=O)CNC(=O)Cc1ccccc1	.	-2	5809	.	.	2	.
72	COc1cc(Cl)c(C)cc1NC(=O)COC(=O)c1cc[n+]([O-])cc1	1	-25	4013	14	12	-2	-1.8
60	COc1ccc(S(=O)(=O)NC2CC3CCC2C3)cc1Br (configuration not stated)	-1	-18	4166	5	9	-6	2.7
58	CCN(C(=O)CSc1nnc(-c2ccccc2)n1C)C1CCS(=O)(=O)C1 (configuration not stated)	3	-18	3969	1	13	-19	2.9
66	COc1ccc(CN2C(=O)c3cccnc3C2=O)cc1S(=O)(=O)NCc1ccco1	6	-11	4870	1	7	8	2.7
63	CC1(c2ccccc2Cl)NC(=O)N(CC(=O)Nc2ccc(N3CCOCC3)cc2)C1=O (configuration not stated)	4	1	5127	5	7	.	3.8
69	CC1CC(C(F)F)n2nc(C(=O)Nc3sc4c(c3C#N)CCC(C(C)(C)C)C4)nc2N1 (configuration not stated)	5	-42	4256	.	.	-2	4.5
59	CC(NC(=O)c1ccc(S(=O)(=O)Nc2ccccc2)cc1)c1ccc(S(N)(=O)=O)cc1 (configuration not stated)	2	-8	3580	-2	9	.	0.4
68	Cc1cc(=O)oc2cc(OCC(=O)N3CCN(C(=O)C4COc5ccccc5O4)CC3)c(Cl)cc12 (configuration not stated)	-6	0	5690	-3	9	1	5.7

Assay outcomes from PubChem BioAssay.
